Calb biofilm kill = mixture kills Candida albicans biofilm cells | C. albicans biofilm persisters + clotrimazole, fluorescence viability; primary screen in compound mixtures of four per well | inhibition, % at 7.6 µM | hit rate 0.02% among 120,000;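 active = inhibition above 30.3% in the primary screen of four-compound pools, then above 30% when the compound was retested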;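 also: compounds exposed to preformed 24 h biofilms for 48 h; the number belongs to the whole pool; some results filed as inactive read as strong as hits; inactives centre near 12; 0% = biofilm with clotrimazole alone and 100% = kill control; retested singly at about 60 µM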
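System: C. albicans CAF4-2 wild-type biofilms; Medium: RPMI/MOPS medium, pH 7.0; Reagent: Clotrimazole, 50 µg/mL; Times: biofilm formation 24 h, compound exposure 48 h, 37 °C; Detection: 2-h Alamar Blue fluorescence, 535/590 nm excitation/emission; Evaluation: percent inhibition of biofilm viability.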
An asterisk follows results filed as active.

SMILES	Calb biofilm kill
Cc1ccc(NC(=O)C2CCCN(C(=O)c3ccc(Cl)cc3)C2)cc1S(=O)(=O)N1CCOCC1 (centres undefined)	17
O=C(c1cccc(N2C(=O)C3C4C=CC(C4)C3C2=O)c1)N1CCN(c2ccccc2)CC1 (centres undefined)	15
Cc1ccc(NC(=O)CSc2nnc(CNC(=O)c3cccs3)o2)cc1	6
O=C(c1ccccc1)N1CCCN(c2nccc(C(F)(F)F)n2)CC1	15
CN1CCN(C2=CC(=O)OC23CCCCC3)CC1	12
NC(=O)CC(NC(=O)c1ccc(Br)cc1)c1ccc(NCc2ccc(F)c(F)c2)c([N+](=O)[O-])c1 (centres undefined)	18
Cc1cc(C)cc(N=Cc2ccc([N+](=O)[O-])s2)c1	16
CC(C)CC(=O)Nc1nnc(SCC(=O)Nc2ccc3c(c2)OCO3)s1	11
COc1ccccc1N1CCN(C(=O)CSc2nnc3c4ccccc4nc(Cc4ccccc4)n23)CC1	13
COc1ccc2c(CC(=O)Nc3ccccc3N3CCOCC3)coc2c1	13
Cc1cc(C)c(Nc2cc(S(=O)(=O)O)c(N)c3c2C(=O)c2ccccc2C3=O)c(C)c1	10
COc1cc(-c2nc(C(F)(F)F)c(OC)o2)cc(OC)c1OC	10
C/C(=N\OCc1ccc(C#N)cc1)c1ccccc1	16
Cc1cc([N+](=O)[O-])nn1CCCC(=O)Nc1sc2c(c1C(N)=O)CCC(C)C2 (centres undefined)	13
CCOC(=O)C(Cc1ccccc1)NC(=O)CNC(=O)CNC(=O)OCc1ccccc1 (centres undefined)	21
Cc1csc(Nc2cccc3ccccc23)n1	9
Cn1c(=O)c(=O)n(C)c2cc(S(=O)(=O)N3CCCC3C(=O)NCc3ccco3)ccc21 (centres undefined)	57
Cc1cc(C(C)(C)C)oc1C(=O)NCCCNC(=O)c1oc(C(C)(C)C)cc1C	14
CCOC(=O)c1c(CC(C)C)csc1/N=C/C1C(=O)CCCC1=O	5
Cc1ccc(-c2nc3cccnc3s2)cc1NS(=O)(=O)c1ccc2c(c1)CCCC2	14
O=C(COC(=O)c1ccc(S(=O)(=O)N2CCCCC2)cc1)NCc1ccco1	5
CSc1nc(N2CCOCC2)c2sccc2n1	12
Cc1ccc2c(c1)/C(=N/N1C(=O)c3ccccc3C1=O)C(=O)N2	14
COCCNC(=S)Nc1ccc2[nH]c(=O)[nH]c2c1	2
CCOC(=O)C1=C(N)N(c2ccccc2)C2=C(C(=O)CCC2)C1c1cccnc1 (centres undefined)	9
Cc1ccc(C)c(CSc2nnc(C)c(=O)n2N)c1	8
C=CCC1(CC=C)CCCN1C(=O)CC1C(=O)NCCN1Cc1ccc(OC)c(OC)c1 (centres undefined)	27
CC(C)(C)c1ccc(SCCc2ccccn2)cc1	16
COc1ccccc1OCCNC(=O)c1cc(=O)[nH]c2ccccc12	10
COc1ccc(N(/N=C2\Sc3ccccc3C2=O)C(C)=O)cc1	12
Cc1c(NP(=O)(Oc2ccccc2F)Oc2ccccc2F)c(=O)n(-c2ccccc2)n1C	24
CSc1nc2c(c(=O)[nH]1)C(c1cccc(Cl)c1Cl)CC(=O)N2 (centres undefined)	11
C/C(=N\NC(=O)c1cccnc1)c1ccc(OC2OCCOC2Oc2ccc(/C(C)=N/NC(=O)c3cccnc3)cc2)cc1 (centres undefined)	14
Cc1noc(C)c1C(=O)Nc1nnc(CC(C)C)s1	33
O=C(COc1ccc(-c2ccccc2)cc1)N/N=C/c1cc(O)ccc1Br	12
COc1cccc(NC(=S)NN2C(C)CCCC2C)c1 (centres undefined)	-3

Retrieved one by one from the entries so far, four records:
SMILES	Calb biofilm kill
COc1ccccc1OCCNC(=O)c1cc(=O)[nH]c2ccccc12	10
Cc1c(NP(=O)(Oc2ccccc2F)Oc2ccccc2F)c(=O)n(-c2ccccc2)n1C	24
O=C(COc1ccc(-c2ccccc2)cc1)N/N=C/c1cc(O)ccc1Br	12
COc1ccc(N(/N=C2\Sc3ccccc3C2=O)C(C)=O)cc1	12

The results go on.
SMILES	Calb biofilm kill
O=C(CSc1nnnn1-c1ccc(O)cc1)N1N=C(c2ccc3ccccc3c2)CC1c1ccccc1 (centres undefined)	7
CCOC(=O)C1=C(C)OC(N)=C(C#N)C1c1cc2cc(C)ccc2nc1N1CCCCC1 (centres undefined)	3
N#Cc1ccccc1NC(=O)c1cc(=O)c2ccccc2o1	13
CCOC(=O)c1ccc(NNC(=O)CC)c([N+](=O)[O-])c1	15
COC(=O)c1sccc1NC(=S)N1CCN(c2cccc(C)c2C)CC1	7
O=C(OCCC1Oc2cccnc2NC1=O)c1ccc(F)cc1 (centres undefined)	-2
CC(C)OC(=O)CC(=O)CSc1nc2c(c(-c3cccs3)c1C#N)CCC2	18
CC(C)[C@H](NC(=O)c1cccc(S(=O)(=O)N2CCOCC2)c1)C(=O)Nc1nc2ccccc2s1	13
C[N+](C)(C)CCCNC(=O)c1ccc(/C=N/O)nc1	20
Cc1ccccc1C(=O)NCC(=O)NNC(=S)NC(=O)c1ccccc1C	6
O=[N+]([O-])c1nn(-c2ccccc2)n(O)c1=NC1CCN(Cc2ccccc2)CC1	26
Cc1[nH]c2ccccc2c1/C=N/NC(=O)CNC(=O)c1ccc2c(c1)OCO2	12
Cc1cccc2sc(NC(=O)c3ccc(NS(=O)(=O)c4cccs4)cc3)nc12	11
CCOC(=O)C1=C(c2ccc(OC)cc2)C(=O)c2ccccc2C1=O	13
CN(C)CCNC(=S)Nc1ccccc1Cl	14
O=C(c1ccc2c3c(cccc13)CC2)C1CCCN(Cc2ccc(OCCO)cc2)C1 (centres undefined)	20
CCCCNC(=O)/C(C#N)=c1\s/c(=C\c2ccccc2OC(F)F)c(=O)n1CCCOC	9
Cc1c(C(=O)NCc2n[nH]c(=S)n2-c2ccc(F)cc2)cccc1[N+](=O)[O-]	19
CCOC(=O)c1sc(NC(=O)c2ccncc2)nc1C	7
Cc1ccc2nc(-c3cccc(Br)c3)cc(C(=O)NC3=NCCS3)c2c1	-5
O=C(Nc1cccc(F)c1)c1c(O)c2cccc3c2n(c1=O)CCC3	29
O=C(CCCN1C(=O)c2cccc3cccc(c23)C1=O)N1CCN(c2ccccn2)CC1	15
OCCN1CCN(C(=S)NC2CCCC2)CC1	14
O=C(NC1CCCCC1)C(c1ccncc1)N(Cc1ccc2c(c1)OCO2)C(=O)c1cnsn1 (centres undefined)	4
COc1ccccc1CCN=C(N)NS(=O)(=O)c1ccc(C)cc1	7
CSC1=NC2(C)CCCCC2C12C=CC(=O)C=C2 (centres undefined)	14
COc1ccccc1NC(=S)N1CCCC1	21
Cc1nc(C)c(C(=O)O)c(-c2ccsc2)c1C(=O)O	6
C(=C\c1ccccn1)/c1cccnc1	27
COc1cccc(/C=C(\C#N)C(=O)NC2CCS(=O)(=O)C2)c1 (centres undefined)	16
CCOC(=O)c1cn(CC(=O)Nc2ccc(OC)cc2OC)nn1	3
CCCOC(=O)CCCC[C@H]1SC[C@@H](NC(=O)OC)[C@H]1NC(=O)OC	15
CCOC(=O)c1cc(-c2ccccc2)n(CC(=O)Nc2ccc(OC)c(OC)c2)c1C	11
Cc1nnc(NC(=O)c2ccc(S(=O)(=O)N3CCc4ccccc4C3)cc2)o1	5
c1ccc2c(c1)CC/C2=N/Nc1nc2ccccc2[nH]1	10
O=C(c1cc(-c2ccccc2)on1)N1CCCc2ccccc21	16
COc1ccccc1/C=C/C=N/n1c(-c2cc(-c3ccccc3)n[nH]2)n[nH]c1=S	14
COc1ccc(Br)c(C(=O)N2CCN(S(=O)(=O)/C=C/c3ccccc3)CC2)c1	8
CN1CCN(CCOC2Cc3ccccc3Sc3ccc(Cl)cc32)CC1 (centres undefined)	7
NNC(=S)Nc1ccc(OC(F)(F)F)cc1	8
COc1ccccc1NCC(=O)n1nc(C)cc1C	25
CN(C)S(=O)(=O)c1ccc(NC(=O)COc2ncnc3sccc23)cc1	13
CC1CC(CCC(=O)NC(=S)Nc2ccc(S(N)(=O)=O)cc2)C(=O)O1 (centres undefined)	2
CC(C)C[C@H](NC(=O)c1nc[nH]c1C(=O)N(C)Cc1ccccc1)C(=O)OC(C)(C)C	16
O=C(NCc1cccnc1)c1cc(Cl)ccc1[N+](=O)[O-]	12
COCCN1CCN(c2c3c(nc4cc(-c5cccc(F)c5)nn24)CCC3)CC1	6
CC1CCCCN1S(=O)(=O)c1cccc(S(=O)(=O)N2CCOCC2)c1 (centres undefined)	11
Cc1cccc(N2C(=O)C(Cl)=C(N3CCOCC3)C2=O)c1	18
CC1=CC(C)(C)NC(=S)N1c1cccc2ccccc12	4
NNC(=O)c1nc(-c2cccc(-n3cccc3)c2)no1	13
COc1ccc(O[C@H]2C=C[C@@H](c3ccccc3)O[C@@H]2COC(=O)CC/C(C)=N/O[C@@H](C)c2cn([C@H](CO)Cc3ccccc3)nn2)cc1	0
NS(=O)(=O)c1ccc(CCNC(=O)C2CCC(Cn3c(=S)[nH]c4ccccc4c3=O)CC2)cc1 (centres undefined)	6
COc1ccc(OC)c(-c2csc(NC(=O)c3ccc4c(c3)OCO4)n2)c1	17
Cc1cc(Cl)ccc1OCCCC(=O)OCC(N)=O	3
COc1ccc(OCCSc2nc3nc(C)cc(C)n3n2)cc1	-8
COc1ccc(C(C(=O)NCc2ccccc2)N(Cc2ccco2)C(=O)c2cnccn2)cc1 (centres undefined)	6
Cc1ccc2c(c1)c(N=NC(N)=S)c(O)n2Cc1ccccc1	9
CCOc1ccc(NC(=O)C2CCC(CNc3c(N4CCCCC4)c(=O)c3=O)CC2)cc1 (centres undefined)	21
CCc1nc(SCc2ccc(F)cc2)n[nH]1	3
CC1CCc2c(sc(NC(=O)CSc3ncn[nH]3)c2C#N)C1 (centres undefined)	10

Next section.
SMILES	Calb biofilm kill
O=C(Cn1cnc2ccccc2c1=O)NNC(=O)c1ccccc1	2
CCC(C)C(=O)Nc1ccc(OC)cc1[N+](=O)[O-] (centres undefined)	16
O=C(N/N=C/c1ccc(N2CCOCC2)cc1)c1ccccn1	16
CN1C(=O)C2C(c3ccc(N(C)C)cc3)=NN(Cc3ccccc3)C2C1=O (centres undefined)	6
COc1ccccc1NCCC(=O)O	21
C=C(C)CNC(=S)N1CCNC(=O)C1CC(=O)OC (centres undefined)	9
CC(C)CSc1n[nH]c(=S)s1	1
N#C/C(=C/c1ccc(-c2cc(C(=O)O)cc(C(=O)O)c2)o1)c1nc2ccccc2s1	22
Cc1c(-c2n[nH]c(=S)n2-c2ccc(Br)cc2)nnn1-c1ccc(Cl)cc1	13
CCc1nnc(NC(=O)/C=C/c2ccc(C)o2)s1	8
Cc1cc2oc(C(=O)Nc3ccc(S(=O)(=O)Nc4nccs4)cc3)cc(=O)c2cc1Cl	-5
Nc1cccc(-c2nnc3n2CCCCC3)c1	24
CC(=O)NC1=NN(C(C)=O)C(c2cccc([N+](=O)[O-])c2)S1 (centres undefined)	2
FC(F)(F)c1ccccc1/C=N/N1CCN(Cc2ccccc2)CC1	8
O=C(NP(=O)(N1CCOCC1)N1CCOCC1)C1=C(N2CCOCC2)/C(=C\c2ccccc2)CC1	15
COc1ccccc1C(=O)C1CCCN(C(=O)CCn2cnnn2)C1 (centres undefined)	14
CCCOC(=O)C(C)Sc1n[nH]c(=O)[nH]c1=O (centres undefined)	11
Cc1ccccc1CSCCC(=O)NCCc1ccccc1	7
CNC(=O)Nc1cc(C)nn1C	12
CC1=C(C(=O)OCC2CCCO2)C(c2ccccc2)C2=C(CC(C)(C)CC2=O)N1 (centres undefined)	14
O=C(Nc1ccc(C(=O)O)cc1)/C(=C\c1cccc([N+](=O)[O-])c1)NC(=O)c1ccc(Br)o1	13
COc1ccc(C2c3c(ncn(CCCO)c3=N)Oc3ccc4ccccc4c32)cc1 (centres undefined)	29
CCOC(=O)c1c[nH]n2c(=O)cc(C)nc12	14
Cc1cc(-c2n[nH]c(=S)n2-c2ccc(F)cc2)nn1C	7

Among those listed so far, 13 have fluorine:
SMILES	Calb biofilm kill
O=C(c1ccccc1)N1CCCN(c2nccc(C(F)(F)F)n2)CC1	15
NC(=O)CC(NC(=O)c1ccc(Br)cc1)c1ccc(NCc2ccc(F)c(F)c2)c([N+](=O)[O-])c1 (centres undefined)	18
COc1cc(-c2nc(C(F)(F)F)c(OC)o2)cc(OC)c1OC	10
Cc1c(NP(=O)(Oc2ccccc2F)Oc2ccccc2F)c(=O)n(-c2ccccc2)n1C	24
O=C(OCCC1Oc2cccnc2NC1=O)c1ccc(F)cc1 (centres undefined)	-2
CCCCNC(=O)/C(C#N)=c1\s/c(=C\c2ccccc2OC(F)F)c(=O)n1CCCOC	9
Cc1c(C(=O)NCc2n[nH]c(=S)n2-c2ccc(F)cc2)cccc1[N+](=O)[O-]	19
O=C(Nc1cccc(F)c1)c1c(O)c2cccc3c2n(c1=O)CCC3	29
NNC(=S)Nc1ccc(OC(F)(F)F)cc1	8
COCCN1CCN(c2c3c(nc4cc(-c5cccc(F)c5)nn24)CCC3)CC1	6
CCc1nc(SCc2ccc(F)cc2)n[nH]1	3
FC(F)(F)c1ccccc1/C=N/N1CCN(Cc2ccccc2)CC1	8
Cc1cc(-c2n[nH]c(=S)n2-c2ccc(F)cc2)nn1C	7

The results go on.
SMILES	Calb biofilm kill
Cc1ccccc1C(=O)N1CCN=C1SCc1ccc([N+](=O)[O-])cc1	-10
COc1ccc(C2CC(=O)c3cnc(N4CCc5ccccc54)nc3C2)cc1OC (centres undefined)	23
O=C(O)C1CCCN(S(=O)(=O)c2cccs2)C1 (centres undefined)	6
COc1ccc(CCC(=O)N(C)CC(=O)Nc2cc(C)ccc2C)cc1	6
Cc1nnc2n(c1=O)N=C(c1ccc(Cl)cc1)CS2	11
C(=C\c1nc(N2CCCCCC2)c2ccccc2n1)/c1ccccc1	11
Brc1ccc(-c2c[n+]3c(n2-c2ccccc2)SCC3)cc1	24

Some of the compounds tested; count on the stated rates, not on these rows.
